H5N1 CPE: antiviral screen in MDCK cells, H5N1 avian flu | cytopathic effect, luminescence, 72 h; active compounds read high; no value below 0 was filed and about half of the inactive calls have no number; reference of the scale not given here | inhibition, % at 50 µM | 0.07% of 96,000 active | AID 740; in the data active = inhibition above about 25%
* hit, by the source's call; i = inactive.

The first 18 records, to show the layout:
SMILES | H5N1 CPE
COc1ccc(S(=O)(=O)Nc2nnc(C)s2)cc1 | 0.8
Cc1ccc(CCNC(=O)c2nnn(-c3cc(C)cc(C)c3)c2N)cc1 | i
Cn1c(=O)n(CCCOc2ccc(Cl)cc2)c2ccccc21 | 0.8
COc1cc(CNC2CCCC2)cc(Cl)c1OCc1ccc(F)cc1 | i
CN(C)c1cccc(C(=O)OCC(=O)NCC2CCCO2)c1 (configuration not stated) | 0.3
C=Cn1ccnc1P(=S)(c1ccn(C)c1)c1nccn1C=C | 0.9
O=C(CN(C(=O)CCC(=O)Nc1nccs1)c1ccc2c(c1)OCCO2)NCc1ccco1 | 0.3
CC(C)Nc1oc(-c2cccc3ccccc23)nc1C#N | i
COCCOC(=O)C1=C(N)Oc2c(c(=O)oc3ccccc23)[C@@]12C(=O)Nc1ccccc12 | i
COc1ccc(NC(=O)c2cccc(-n3cnnn3)c2)cc1 | i
O=C(Nc1ccc2c(c1)OCO2)N1CCN(c2ncc(C(F)(F)F)cc2Cl)CC1 | i
Cc1ccc(N2CC(c3nc4ccccc4n3C)CC2=O)cc1C (configuration not stated) | 0.3
CN1CCN(Cc2c(O)ccc3c(=O)c(Oc4ccccc4Cl)c(C(F)(F)F)oc23)CC1 | i
Cc1ccc(CNC(=O)c2cn(C)c(=O)c3c2c2ccccc2n3C)o1 | 0.4
CCCCCCCC(=O)N/N=C/c1ccco1 | 1.2
CN(C)c1nc(NCc2ccccc2)nc(N/N=C/c2ccc(Cl)cc2Cl)n1 | i
COc1ccc(S(=O)(=O)Nc2ccc3oc(C)c(C(C)=O)c3c2)cc1 | 0.7
CCN(CC)c1ccc(C(=O)OCC(=O)N2CCN(c3ccccc3)CC2)cc1 | 0.4

Results, from the start:
SMILES | H5N1 CPE
COc1ccc(S(=O)(=O)Nc2nnc(C)s2)cc1 | 0.8
Cc1ccc(CCNC(=O)c2nnn(-c3cc(C)cc(C)c3)c2N)cc1 | i
Cn1c(=O)n(CCCOc2ccc(Cl)cc2)c2ccccc21 | 0.8
COc1cc(CNC2CCCC2)cc(Cl)c1OCc1ccc(F)cc1 | i
CN(C)c1cccc(C(=O)OCC(=O)NCC2CCCO2)c1 (configuration not stated) | 0.3
C=Cn1ccnc1P(=S)(c1ccn(C)c1)c1nccn1C=C | 0.9
O=C(CN(C(=O)CCC(=O)Nc1nccs1)c1ccc2c(c1)OCCO2)NCc1ccco1 | 0.3
CC(C)Nc1oc(-c2cccc3ccccc23)nc1C#N | i
COCCOC(=O)C1=C(N)Oc2c(c(=O)oc3ccccc23)[C@@]12C(=O)Nc1ccccc12 | i
COc1ccc(NC(=O)c2cccc(-n3cnnn3)c2)cc1 | i
O=C(Nc1ccc2c(c1)OCO2)N1CCN(c2ncc(C(F)(F)F)cc2Cl)CC1 | i
Cc1ccc(N2CC(c3nc4ccccc4n3C)CC2=O)cc1C (configuration not stated) | 0.3
CN1CCN(Cc2c(O)ccc3c(=O)c(Oc4ccccc4Cl)c(C(F)(F)F)oc23)CC1 | i
Cc1ccc(CNC(=O)c2cn(C)c(=O)c3c2c2ccccc2n3C)o1 | 0.4
CCCCCCCC(=O)N/N=C/c1ccco1 | 1.2
CN(C)c1nc(NCc2ccccc2)nc(N/N=C/c2ccc(Cl)cc2Cl)n1 | i
COc1ccc(S(=O)(=O)Nc2ccc3oc(C)c(C(C)=O)c3c2)cc1 | 0.7
CCN(CC)c1ccc(C(=O)OCC(=O)N2CCN(c3ccccc3)CC2)cc1 | 0.4
Cc1c(NS(=O)(=O)c2ccccc2)cc(Cl)c(O)c1C | i
CCn1cc(C(=O)N2CCc3ccccc32)c(=O)c2cc(S(=O)(=O)N3CCCCCC3)ccc21 | i
O=[N+]([O-])c1ccc(Cl)c(/C=N/Nc2nc(N3CCOCC3)nc(N3CCOCC3)n2)c1 | 0.7
O=C(Nc1nnc(SCc2ccc(Cl)cc2)s1)c1ccco1 | i
Cc1cc(C(=O)N2CCCC2C(=O)O)c(C)o1 (configuration not stated) | i
CCOC(=O)c1[nH]c2ccccc2c1N=CN(CC)CC | 1.6
CN(CCOC(=O)c1cccc(Br)c1)C(C)(C)C | 0.1
(cont.)
SMILES | H5N1 CPE
Cc1ccc(-c2noc(CSc3ccccc3)n2)cc1 | 0.2
CCCCN1CCc2c([nH]c3ccc(C)cc23)C1=O | i
O=C(COC(=O)[C@H](Cc1ccccc1)NC(=O)c1ccco1)NC(c1ccccc1)c1ccccc1 | 0.8
CCc1cc(=O)oc2c(C)c(OCC(=O)N3CCCc4ccccc43)ccc12 | 3.0
Cc1nc2ccc(S(=O)(=O)NCC(=O)N3CCCCC3)cc2s1 | 0.8
CCCCCCC1C(C#N)=C(N)OC2=C1C(=O)CCC2 (configuration not stated) | i
CC#CCN(CC#CC)S(=O)(=O)c1ccc(-n2cnnn2)c(OC)c1 | 2.6
CCOC(=O)C1=C(C)NC(C)=C(C(=O)OCC)C1C(=O)OCC(=O)N1CCc2ccccc21 | i
CCCc1cc(=O)[nH]c(/N=C(/NC(=O)C(C)N2C(=O)c3ccccc3C2=O)Nc2ccccc2)n1 (configuration not stated) | 0.1
Cn1c(CCN2CCOCC2)nc2cc(NC(=O)COc3ccc(Cl)cc3)ccc21 | i
COC(=O)c1c(C)nc2c(c(SC)nn2-c2ccccc2)c1N | 0.7
O=C(Nc1ccc(F)cc1F)c1ccc(COc2c(F)c(F)cc(F)c2F)o1 | i
COc1ccc(C(=O)Nc2ccc(S(=O)(=O)N3CCCCC3C)cc2)c(OC)c1OC (configuration not stated) | 0.9
CCN(CC(=O)Nc1ccc2c(c1)OCCO2)Cc1cc(=O)oc2cc(C)c(C)cc12 | 2.2
Cc1ccc2cccc(S(=O)(=O)n3nc(C)cc3C)c2n1 | 1.5
FC(F)(F)c1cccc(N2CCN(C(=S)NC3CCCC3)CC2)c1 | i
O=C(NCc1ccco1)/C(=C/c1cccnc1)NC(=O)c1cccc(Br)c1 | i
CN(C)c1ccc(/C=[N+](\[O-])C(C)(C)/C=N/O)cc1 | i
CN(Cc1nc(-c2cccnc2)no1)S(=O)(=O)c1ccccc1 | 1.4
CC(C)C(=O)N1CCN(c2ccc(NC(=O)c3ccc4c(c3)OCCO4)cc2Cl)CC1 | i
COc1cccc(NC(=O)CSc2nccn2-c2cccc(OC)c2)c1 | 0.2
CCOC(=O)c1[nH]c2ccc(OC)cc2c1NC(=O)CCN1CCC(C)CC1 | i
CC12CCCCN1CCCc1c2[nH]c2ccccc12 (configuration not stated) | 0.7
Cc1nn2cc(-c3ccccc3)nc2s1 | 0.6
CC12CCC(C(=O)O)(c3nc(C#N)c(C#N)nc31)C2(C)C (configuration not stated) | i
Further compounds:
SMILES | H5N1 CPE
Cc1ccc2c(CC(=O)Nc3nc(C)cs3)coc2c1 | i
O=C(Cn1ccc2ccccc2c1=O)N1CCN(Cc2ccc3c(c2)OCO3)CC1 | 1.1
Cc1nnc(SCCC#N)n(CCC#N)c1=O | i
COCCCNC(=O)c1cccs1 | 0.4
CC(C)NC(=O)Cn1c(=O)c2c(ncn2Cc2ccccc2)n(Cc2ccccc2)c1=O | 1.6
Cc1ccc(Cn2c(=O)c3c(nc4n3CCCN4Cc3ccccc3)n(C)c2=O)cc1 | 0.6
O=C(NCc1cccnc1)c1ccc(=O)oc1 | 2.2
CCOC(=O)c1c(NCC(C)C)c2ccccc2[nH]c1=O | 2.1
CCCc1nc(SCC(=O)c2ccccc2)c2c(=O)n(C)c(=O)n(C)c2n1 | 0.9
O=C1NC(=O)C(c2cn(-c3ccccc3)nc2-c2ccc(F)cc2)N1 (configuration not stated) | i
CCOc1ccc2oc(-c3ccccc3)c(C(=O)N3CCN(CCO)CC3)c2c1 | 1.4
CCOC(=O)C1=C(C)NC2=C(C(=O)CCC2)C1c1cn(Cc2ccc(Cl)cc2Cl)nc1-c1ccccc1 (configuration not stated) | 4.2
CO/N=C(\CS(=O)(=O)Cc1ccc(OC)cc1)c1ccc(Cl)cc1 | i
CCn1c(C(=O)N2CCC(C(=O)N3CCC4(CC3)OCCO4)CC2)cc2sccc21 | 0.6
Cc1ccccc1C(=O)N1CCN(c2ccc(NC(=O)CSc3ccc(Cl)cc3)cc2)CC1 | i
COc1ccc(-n2nc3c(c2NC(=O)C2CC2)CS(=O)C3)cc1 (configuration not stated) | 0.0
O=C(N/C(=C/c1ccco1)C(=O)N1CCCCC1)c1cccs1 | i
Cc1cc(C)cc(Oc2coc3cc(OC(=O)c4cccs4)ccc3c2=O)c1 | i
CS(=O)(=O)N1CCC(c2noc(-c3ccc(C(F)(F)F)cc3)n2)CC1 | 0.3
O=C(N/N=C/c1cccc(F)c1)c1csc2c1CCCC2 | i
Cc1cccc(-c2noc(CN(C(=O)CCc3ccccc3)C(C)C)n2)c1 | 2.0
COc1ccc(CCNC(=S)Nc2cc(C)cc(C)c2)cc1 | i
CCCCN(C)C(=O)c1cn(CC)c2nc(C)ccc2c1=O | 0.2
CC1OC(Nc2cccc3ccccc23)C(O)C(O)C1O (configuration not stated) | i
Cc1ccc(S(=O)(=O)N/N=C/C(C)(C)CO)cc1 | 0.1
(next part)
SMILES | H5N1 CPE
CCCS(=O)(=O)NCc1ccc2c(c1)cc(C)n2C | i
CCOc1c(P(=S)(N(C)C)N(C)C)c(C)nn1-c1ccccc1 | 1.8
O=C(NCCc1cn2ccsc2n1)c1cccs1 | i
COc1cccc(Oc2cn[nH]c2-c2ccc(OC)cc2O)c1 | i
O=C(O)CSc1nnnn1-c1ccc2c(c1)OCCO2 | 1.1
O=C(O)[C@@H]1CCCN1c1ncnc2sc3c(c12)CCC3 | 0.8
CCOC(=O)CN1C(=O)C(Sc2n[nH]c(-c3cccc(C)c3)n2)CCc2ccccc21 (configuration not stated) | i
CCCn1c(=O)c(Cc2ccccc2)c(O)c2ccccc21 | i
Cc1c(/C(O)=C2\C(=O)C(=O)N(CCN(C)C)C2c2cccnc2)cnn1-c1ccccc1 (configuration not stated) | 0.8
CC1CN(C2CCN(S(=O)(=O)c3ccc(F)cc3)CC2)CC(C)O1 (configuration not stated) | i
COc1cc2[nH]c(=O)n(CCC(=O)NC3CCN(Cc4ccccc4)CC3)c(=O)c2cc1OC | i
CCOC(=O)CSc1cc(=O)n(C)c2cc(Cl)ccc12 | i
C=C(C)COc1ccc(-c2nc(N)ncc2Oc2ccccc2OCC)c(O)c1 | 0.1
O=C(CCSc1ccc(Cl)cc1)N1CCN(c2ncccn2)CC1 | i
O=S(=O)(c1cc(Cl)ccc1Cl)N1CCN(Cc2ccc3c(c2)OCO3)CC1 | 1.2
CS(=O)(=O)N1CCCC(C(=O)NC2CCCCCCC2)C1 (configuration not stated) | i
COCC(C)n1c(C)cc(C(=O)Cn2c(=O)oc3ccccc32)c1C (configuration not stated) | 1.1
N#CCC(=O)NN=C1CCCCCCCCCCC1 | 4.3
O=C(NN=C1c2ccccc2-c2ccccc21)c1ccccc1Br | 0.0
CCc1nnc(N/N=C/c2c(Cl)cccc2Cl)n1N | 0.1
Cc1ccc2nc(-c3ccccc3)cc(C(=O)NCCCn3ccnc3)c2c1 | i
CCCC(=O)C1=C(c2ccccc2)C(C#N)(C#N)C(C#N)=C1N | 1.0
CSc1nc(-c2ccccc2)ccc1C(N)=O | 0.5
Cc1c(C(=O)N2CCCCC2)sc(N)c1C#N | 0.1
Cc1cc(=O)oc2cc(OCC3CC(c4ccc(N(C)C)cc4)=NO3)ccc12 (configuration not stated) | i
Next section:
SMILES | H5N1 CPE
O=C(CCNS(=O)(=O)c1ccc(Br)s1)N1CCCCC1 | 0.8
c1ccc(-c2noc(-c3cccnc3)n2)cc1 | 0.2
COc1ccc(N2CCN(C(=O)CSc3ncccc3-c3nc4ccccc4[nH]3)CC2)cc1 | 0.1
Cc1ccc(/C(O)=C2/C(=O)C(=O)N(Cc3cccnc3)C2c2ccccn2)cc1 (configuration not stated) | 1.1
O=C(COC(=O)c1ccccn1)Nc1c(Cl)cccc1Cl | 0.2
CCOC(=O)c1c(C)[nH]c(C)c1C(=O)Cn1nnc(-c2ccccc2C)n1 | 0.1
CC(=O)NCCc1ccc(S(=O)(=O)N2CCCC2)cc1 | i
Cc1nnc(SCC(=O)N2CCN(S(=O)(=O)c3ccc(Cl)cc3)CC2)n(N)c1=O | i
Nc1nc(SCCOc2ccccc2)n[nH]1 | 1.9
Cn1c(=O)[nH]c(=O)c2c1nc(CN1CCN(c3ccc(F)cc3)CC1)n2CCc1ccccc1 | 0.8
CCCNC(=O)NCc1ccc(N2CCCC2=O)cc1 | i
COc1cccc(Nc2nc(-c3ccc(O)cc3)cs2)c1 | i
O=C(N/N=C/c1ccc(Cl)c([N+](=O)[O-])c1)c1ccc2nc[nH]c2c1 | 0.7
CCOC(=O)c1ccc(NC(=O)CSc2nc(C)nc3c2c(=O)n(C)c(=O)n3C)cc1 | 1.2
O=C(Cc1c[nH]c2ccccc12)OCC(=O)c1ccccc1 | 0.1
CCOC(=O)Cc1c(C)c2c(O)cc(O)cc2oc1=O | 0.4
CCOc1cc(NS(=O)(=O)c2ccc(NC(C)=O)cc2)c(OCC)cc1NC(=O)C(C)C | i
COc1ccccc1C(=O)Nc1ccc2c(c1)OCO2 | 0.1
CN(CC(=O)Nc1c(Cl)cccc1Cl)C(=O)CCCN1C(=O)c2ccccc2C1=O | 0.4
CC(=O)NN1C(=O)c2ccc(Oc3cccc([N+](=O)[O-])c3)cc2C1=O | 0.1
CC1(C(=O)CSc2ncn[nH]2)CCC(=O)O1 (configuration not stated) | 0.1
COC(=O)CSc1nc2ccc(NC(=O)CSc3nnnn3Cc3ccccc3)cc2s1 | 0.3
CCCCNC(=O)C(CC)Sc1nc2sc(C(=O)OC)c(C)c2c(=O)n1N (configuration not stated) | i
CCOC(=O)c1c(C)[nH]c(C(=O)COC(=O)c2ccc(F)c(S(=O)(=O)N3CCOCC3)c2)c1C | i
CCOC(=O)N1CCC(NC(=O)CCC(=O)N2CCOc3ccc(C)cc32)CC1 | i
Continuation.
SMILES | H5N1 CPE
Cn1c(=O)cc(OCCCC(=O)NCCN2CCN(c3ccccc3F)CC2)c2ccccc21 | 0.8
COc1ccccc1NC(=O)Cc1noc(CN(C)Cc2cccs2)n1 | 0.3
CC(=O)Nc1ccc(S(=O)(=O)n2nc(C)cc2C)cc1 | 0.2
COc1cccc(C2=NOC(C(=O)NCc3ccccn3)C2)c1 (configuration not stated) | 0.3
CCN1C(=O)S/C(=C\c2ccc(N3CCOCC3)cc2C)C1=O | i
Cc1ccc(NCc2cccnc2)cc1 | i
Cc1ccc(C(=O)NC(=S)Nc2cc(C(F)(F)F)ccc2Cl)cc1 | 0.8
COc1ccccc1NC(=O)CC(NCc1ccccc1)C(=O)O (configuration not stated) | i

This is a subset (hit frequency here may not be typical).
